Autofluor counter: flagged as autofluorescent in microsphere protease counterscreen | compound autofluorescence counterscreen, microsphere flow cytometry; active compounds read high | AID 624483 | hit rate 3.1% among 360,000 | fluorescence intensity (test concentration not listed);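 active = at least 3 SD above the mean of all compounds, about 16000 in these data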;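 note: 100 nL of 1 mM stock went into each well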
BJeLR lethal: kills HRASV12-expressing BJeLR cells. inhibition, % (no concentration beside the values). BJeLR (HRASV12) viability, CellTiter-Glo ATP luminescence, 48 h; reference of the scale not given here. AID 1554. hit rate 0.17% among 300,000;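 active = replicate mean above 50%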;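 note: 50 nL library stock added to about 25 µL; numbers are from one replicate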
PrP UTR inh: inhibition of PrP 5' UTR reporter expression; cell-based PrP 5' UTR mRNA reporter, plate reader; inhibition, % (test concentration not listed); hit rate 0.35% among 340,000;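 active = every replicate at 50% or more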;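 note: 0 = median of the neutral control wells; tested in H4 reporter cells; numbers are from one replicate; inactives centre near -14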
Mtb hypoxia rep: inhibitors of hypoxia-regulated fluorescent reporter in Mycobacterium tuberculosis; hit rate 0.1% among 300,000; AID 1159583; fluorescence inhibition, % (test concentration not listed); M. tuberculosis hypoxia-regulated fluorescent reporter, fluorescence;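 active = 35 to 45% if threefold the growth effect, above 45% if 1.5-fold the growth effect; inactive = the rest, general growth blockers included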;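 note: wells of about 50 µL received 100 nL stock; 0% = vehicle wells and 100% = reference inhibitor wells; whole bacteria with a GFP reporter of the hypoxia response; strong numbers were not always called active; many hits fall short of the cut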
ugtP null kill: compounds lethal to S. aureus RN4220 ugtP deletion mutant; growth inhibition, % (no concentration beside the values); hit rate 0.54% among 330,000; AID 1259309; OD600 growth, 16 h; some inactives read as strong as hits;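 active = z-score under -3 and OD600 up to 0.15 on both plates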;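 note: plate controls were untreated wells for no effect and antibiotic for full effect; wells of about 80 µL received 100 nL stock; the first replicate is given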
RN4220 kill: kills Staphylococcus aureus RN4220. inhibition, % (no concentration beside the values). S. aureus RN4220 growth, OD600, 16 h. hit rate 0.33% among 330,000;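 active = z-score of -3 or lower and OD600 up to 0.18 on both plates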;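 note: plate controls were untreated cells for no effect and reference antibiotic for full effect; stock transfer was 100 nL into about 80 µL; one replicate is shown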
Mtb hypoxia rep growth: recorded beside Mtb hypoxia rep, whose call it bears; growth inhibition, %; measured here: M. tuberculosis growth (absorbance);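 0% = vehicle and 100% = reference antibiotic; read after six days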
Starred values were filed as active, the others as inactive; . = not tested or not shown. Compounds as they come. About 4% of those tested had a hit in this group.

SMILES	Autofluor counter	BJeLR lethal	PrP UTR inh	Mtb hypoxia rep	Mtb hypoxia rep growth	ugtP null kill	RN4220 kill
COc1ccc(CC(=O)N[C@@H](C)C(=O)N2CCC3(CC2)NCCc2[nH]cnc23)cc1	5196	6	-12	-1	0	4	2.5
CSCCC(NS(=O)(=O)c1ccccc1)C(=O)OCc1nc2ccsc2c(=O)[nH]1 (stereo not given)	5096	2	-15	-7	-7	2	2.2
CCOc1ccc(C(=O)COC(=O)c2nn(CC)c(=O)c3ccccc23)cc1	3727	.	-41	11	8	8	2.8
CCOc1ccc(CN(C)c2nc(-c3cccnc3)nc3ccccc23)cc1OC	4729	-5	-3	-10	0	-4	-2.2
Cc1ccc(OCCOCCNC(C)C)c(Br)c1	2340	-9	-16	.	.	4	-1.0
O=C1CC(c2ccco2)Sc2nc3ccccc3n21 (stereo not given)	3180	2	-31	15	8	8	6.3
COc1ccc(CN(C)CC(=O)NC(=O)NCc2ccccc2)c(OC)c1	3151	-3	-36	3	-2	14	7.3
COc1ccc(-n2nc([N+](=O)[O-])c(=NCCc3cccc(C)c3)n2O)cc1	2065	6	-4	13	4	31	18
S=C(NN=Cc1ccco1)NC1CC2CCC1C2 (stereo not given)	.	.	.	20	15	9	1.6
CCN(c1cccc(C)c1)C1C(=O)c2ccccc2N1C(C)=O (stereo not given)	3533	-9	-25	3	-2	9	1.9
Cc1cccc(NC(=O)CSc2nnc(CCNC(=O)OC(C)(C)C)o2)c1C	3986	-3	-22	10	10	1	4.2
Cc1sc2nc(CN3CCOCC3)nc(Oc3ccc(NC(=O)c4ccco4)cc3)c2c1C	3869	4	-14	4	11	-14	1.0
CC(C)C(=O)NC(c1ccc(N(C)C)cc1)c1c(O)ccc2ccccc12 (stereo not given)	4854	-9	6	16	3	9	2.0
Cc1cc(C)nc(NS(=O)(=O)c2ccc(NC(=O)c3ccccc3[N+](=O)[O-])cc2)n1	3094	-6	10	7	4	12	2.1
CCCn1nnc(NC(=O)c2ccc(-c3ccccc3)cc2)n1	11185	1	-89	-4	1	9	4.7
CCOC(=O)c1ccc(CSc2nnc(N)s2)cc1	6508	-2	-41	-2	-6	7	6.4
Cc1ccc2c(CC(=O)OCc3csc(C)n3)coc2c1	3321	-8	-15	21	8	14	9.1
CCC1CCCCN1CCCNC(=O)Cn1nc(-c2ccccc2)ccc1=O (stereo not given)	8754	3	-2	-15	-10	-6	-5.9
O=C(O)CSc1c2c(nc3cc(C(=O)N4CCCC4)ccc13)CCCC2	3090	-13	-4	3	11	1	4.1
Cc1cc(NCCCn2ccnc2)n2nc(-c3ccc(F)cc3)cc2n1	8256	7	-26	4	8	0	1.9
Cc1cc(-c2nc3cccnc3s2)ccc1NS(=O)(=O)c1cccs1	5608	-19	-31	0	10	81	20
CCNc1nc(-c2ccc(Cl)cc2)cs1	3356	5	-66	16	12	13	-5.3
CCOc1nc2ccccc2nc1NS(=O)(=O)c1ccc(Cl)cc1	3660	-14	-10	0	8	-15	17
Cc1ccc(C(=O)OCC(=O)NC(=O)c2ccccc2)o1	4327	4	-17	10	8	6	4.7

3 entries drawn at random from those above:
SMILES	Autofluor counter	BJeLR lethal	PrP UTR inh	Mtb hypoxia rep	Mtb hypoxia rep growth	ugtP null kill	RN4220 kill
Cc1ccc(C(=O)OCC(=O)NC(=O)c2ccccc2)o1	4327	4	-17	10	8	6	4.7
CC(C)C(=O)NC(c1ccc(N(C)C)cc1)c1c(O)ccc2ccccc12 (stereo not given)	4854	-9	6	16	3	9	2.0
CCCn1nnc(NC(=O)c2ccc(-c3ccccc3)cc2)n1	11185	1	-89	-4	1	9	4.7

Carrying on.
SMILES	Autofluor counter	BJeLR lethal	PrP UTR inh	Mtb hypoxia rep	Mtb hypoxia rep growth	ugtP null kill	RN4220 kill
COc1ccccc1C(CNC(=O)CNC(=O)c1ccc(C)c(C)c1)N1CCCC1 (stereo not given)	3123	.	-10	-1	-6	7	5.9
CC1CCN(C(=O)CSc2nc(N)cc(N)n2)CC1	23394*	.	-7	-4	7	2	2.3
Cc1cc(=O)n2c(C(=O)Nc3ccc(C)c(C)c3)c(C(=O)Nc3ccccc3)sc2n1	4706	9	-15	7	9	11	9.5
COC(=O)C(C=NOCc1ccc([N+](=O)[O-])cc1)NC(=O)c1cccc(Cl)c1 (stereo not given)	.	.	.	17	8	-4	-3.8
Cc1cc2oc(=O)ccc2cc1[N+](=O)[O-]	3491	11	-15	0	1	2	0.4
CCN1CCSc2ccc(C(=O)NCc3ccccc3Br)cc21	4059	-5	-16	4	2	7	0.1
COc1ccc(-c2noc(C)c2-c2ccc3ccccc3n2)c(O)c1	2336	6	-5	2	15	-16	-3.1
CCN(CC)S(=O)(=O)c1ccc(NC(=O)c2ccc(N3CCCC3=O)cc2)cc1	4114	.	-4	-6	-1	0	0.4
Cc1ccc(S(=O)(=O)N=C(Sc2ccccc2C(=O)O)c2ccccc2)cc1	.	.	.	-5	-8	1	2.0
CC(C)C(OC(=O)CN1C(=O)c2ccccc2C1=O)C(=O)NC1CCCCC1 (stereo not given)	2964	0	-5	3	0	-1	-5.2
Cc1cc(C)cc(NC(=O)Nc2c(Br)cnn2C)c1	4067	-2	-13	12	6	-7	5.6
COc1cc2c(cc1OC)CN(C(=O)CNS(=O)(=O)c1ccc(C)c(C)c1)CC2	3472	-5	-18	10	12	7	3.1
Cc1cc(C)n2nc(SCC(=O)Nc3ccc(F)cc3[N+](=O)[O-])nc2n1	8030	.	-32	7	13	-2	-2.7
O=C(CN1CCCCCC1)NCCN1C(=O)S/C(=C\c2ccccc2Cl)C1=O	4180	-9	-9	0	11	-2	-3.6
CC(=O)OCc1cc(=O)n(C)c(=O)n1C	10698	-12	.	6	7	6	2.5
O=C(CN1CCN(c2ccc(F)cc2)CC1)Nc1ccc(S(=O)(=O)N2CCOCC2)cc1	6031	10	-33	4	-6	2	-0.5
Cc1ccc(CCNC(=O)Cn2ccc3cc(S(=O)(=O)N4CCCC4)ccc32)cc1	5611	7	-13	-5	-2	7	4.6
Cc1ccc2[nH]c3c(c2c1)CCc1cn[nH]c1-3	8542	3	-28	2	-2	-39	-2.3
COc1ccc(-c2nc3ccccn3c2N=Cc2ccc(OC)c(OC)c2)cc1O	.	.	.	11	-8	10	1.4
COc1ccc2c(c1)C(=O)CC(c1ccccc1F)O2 (stereo not given)	2556	.	-22	2	10	7	-12
COc1c(/C=C2/C(=O)NC(=O)N(C)C2=O)c(CCN(C)C(=O)c2ccccc2)cc2c1OCO2	4123	9	4	.	.	-5	7.1
S=c1nn[nH]c2ccccc12	3119	.	3	9	7	7	5.0
CCOC(=O)/C=c1/s/c(=C/c2ccc3cc(OC)ccc3c2)c(=O)n1CC(=O)NCc1ccc2c(c1)OCO2	3480	.	-8	4	4	0	3.4
CC(C)C(C)NC(=O)COc1ccc(OCc2ccccc2)cc1 (stereo not given)	4019	0	-33	-4	6	10	-7.6
CCOC(=O)N1CCN(Cc2nc(Cc3cccc(C(F)(F)F)c3)no2)CC1	3376	0	-15	7	8	25	9.3
COc1ccc(S(=O)(=O)c2c(O)c3ccc(C(=O)Nc4ccc(F)cc4F)cc3[nH]c2=O)cc1	5389	-6	-14	4	2	12	3.9
Cc1ccc(C2=C(c3ccc([N+](=O)[O-])cc3)C(=O)OC2)cc1C	3532	-10	-31	3	17	2	2.3
CCS(=O)(=O)c1nc2ccccc2n1Cc1ccccn1	6797	5	-6	13	5	3	4.5
CC(=O)c1ccc(NC(=S)NC(C)c2ccc(Cl)cc2Cl)cc1 (stereo not given)	3583	18	-9	-13	1	55	61
CCCNC(=O)c1cnc(Sc2ncc(C(F)(F)F)cc2Cl)n1C	2844	5	-11	8	6	-4	-9.2
O=C(CSc1ccc(-c2ccncc2)nn1)N1CCCC1	3870	-5	-25	4	5	4	6.4
O=C(COc1ccc(Cl)cc1)NCc1cn2cc(Cl)ccc2n1	4019	2	-11	13	1	6	13
CCSc1nnc(Cn2c(=O)sc3ccccc32)n1C	5638	-1	-24	.	.	2	2.1
CC(C)Sc1nc2ccc(N3C(=O)C4CCCCC4C3=O)cc2s1 (stereo not given)	2531	3	-19	6	0	15	6.2
CNC(=S)NCCc1ccc(OC)cc1	2755	-2	-21	6	2	1	5.2
COc1ccccc1NC(=O)C1CCCN1C(=O)NC1CCCCC1 (stereo not given)	3540	-11	-14	12	7	6	1.1
COc1ccc(C(C)=NNC(=O)CNC(=O)c2cccnc2)cc1	.	.	.	0	-5	3	2.7
Cc1ccc2sc(N3CCN(C(=O)c4ccc([N+](=O)[O-])o4)CC3)nc2c1C	5650	5	-11	.	.	8	5.6
CNS(=O)(=O)c1ccc(C(C)(C)C)cc1	3760	2	-21	17	6	0	4.6
Fc1cccc(CN2CCN3CCCC3C2C2CCCCC2)c1 (stereo not given)	4973	7	2	.	.	3	4.9
O=C(CC1SC(N2CCCC2)=NC1=O)Nc1ccc(C(=O)Nc2ccccc2)cc1 (stereo not given)	4772	2	-8	0	8	3	3.8
O=C(O)c1cccc(N/N=C/c2cccnc2)c1	5064	6	-21	.	.	.	.
CC(=NNC(=O)OC(C)(C)C)c1ccccc1Br	.	.	.	-11	6	-8	-1.2
CCC(C)(C)NC(=O)CN(C(=O)CCC(=O)Nc1nccs1)c1ccc2c(c1)OCCO2	4752	-11	-3	-1	2	1	1.8
CCOc1ccc(NC(=O)COC(=O)c2cc(=O)c3ccccc3o2)cc1	8305	.	-20	-3	-2	4	2.7
CCOC(=O)C1=C(C)Nc2sc(C(=O)c3ccc(Br)cc3)c(N)c2C1c1ccc(C(=O)OC)cc1 (stereo not given)	11356	10	-14	-6	9	50	-6.9
CCCCNC(=O)Cn1c(=O)n(C)c2ccccc21	4418	1	-6	8	8	6	-1.0
CNC(=O)CN(c1cc(C)ccc1OC)S(=O)(=O)c1ccc(C)cc1	3238	8	-7	-4	-5	8	7.4

An excerpt from above with just Mtb hypoxia rep, Autofluor counter and ugtP null kill.
SMILES,Mtb hypoxia rep,Autofluor counter,ugtP null kill
O=C(CN1CCCCCC1)NCCN1C(=O)S/C(=C\c2ccccc2Cl)C1=O,0,4180,-2
CCCCNC(=O)Cn1c(=O)n(C)c2ccccc21,8,4418,6
Cc1ccc(OCCOCCNC(C)C)c(Br)c1,.,2340,4

Other structures follow:
SMILES	Autofluor counter	BJeLR lethal	PrP UTR inh	Mtb hypoxia rep	Mtb hypoxia rep growth	ugtP null kill	RN4220 kill
COC(=O)C1CCN(Cc2ccc(OCCCN3CCN(c4ccc([N+](=O)[O-])cc4)CC3)cc2)CC1	4488	8	-6	6	12	9	-2.3
O=C(NCc1ccccc1)NC(O)C(Cl)(Cl)Cl (stereo not given)	2706	-2	-16	11	-3	1	4.7
O=C(/C=C/c1cccs1)N1CCC2(CC1)Oc1ccc(F)cc1C(=O)C21CC(c2ccc(Cl)cc2)=NO1 (stereo not given)	4141	-10	-18	.	.	.	.
O=C(NCc1ccc(Cl)cc1)c1ccc(NC(=O)C2CCCO2)cc1 (stereo not given)	3792	4	-35	-2	-4	13	1.4
O=C(C1CCCCN1S(=O)(=O)c1ccccc1)N1CCCCC1 (stereo not given)	11082	9	-13	1	1	0	2.3
COc1cc(C=Nn2cnnc2)ccc1OCc1ccccc1	.	.	.	0	6	-7	8.7
COc1ccc(N(CC(=O)Nc2cccc(C)c2)S(=O)(=O)c2c(C)noc2C)cc1	5115	-6	-22	4	10	4	13
CCCC/C(O)=N\S(=O)(=O)c1ccc(N=NN(C)C)cc1	3965	0	-42	.	.	.	.
COCCOC(=O)c1c(NC(=O)CSc2cccc[n+]2[O-])sc(C(N)=O)c1C	3421	-16	-22	16	-2	-1	-0.2
Cc1ccc(CSc2cc(C)[nH]c(=O)n2)cc1	5610	4	-28	-7	-25	0	0.2
COCCCn1c(=O)c2sccc2n2c(CCCC(=O)N(C)Cc3ccco3)nnc12	6481	-14	-25	-4	-5	0	5.0
CN(c1ccc(C(=O)Nc2ccccc2C(=O)N2CCOCC2)cc1)S(C)(=O)=O	3654	-1	-24	.	.	-2	4.6
CCN(CC)c1ccc(/C=N/O)cc1	3304	-1	-21	.	.	.	.
COc1ccccc1C(=O)NCCC(=O)NN1C(=O)NC2(CCCCC2)C1=O	6280	-6	-17	11	5	4	0.1
COc1ccc(CCC(=O)Nc2ccc(C)c([N+](=O)[O-])c2)cc1	2021	-7	6	8	0	11	10

Compound activity (PubChem BioAssay)
